KAT2A inh = inhibitors of human GCN5L2 histone acetyltransferase. Potency, µM (series often up to 58.9 µM), without a hit: at the highest dose activity change, negative = inhibition, most hits filed as inhibitors. AID 504327. Q92830. GCN5L2 HAT assay, ThioGlo1 CoA-SH fluorescence. 0.21% of 390,000 active
Target sequence (Q92830 whole entry, looked up): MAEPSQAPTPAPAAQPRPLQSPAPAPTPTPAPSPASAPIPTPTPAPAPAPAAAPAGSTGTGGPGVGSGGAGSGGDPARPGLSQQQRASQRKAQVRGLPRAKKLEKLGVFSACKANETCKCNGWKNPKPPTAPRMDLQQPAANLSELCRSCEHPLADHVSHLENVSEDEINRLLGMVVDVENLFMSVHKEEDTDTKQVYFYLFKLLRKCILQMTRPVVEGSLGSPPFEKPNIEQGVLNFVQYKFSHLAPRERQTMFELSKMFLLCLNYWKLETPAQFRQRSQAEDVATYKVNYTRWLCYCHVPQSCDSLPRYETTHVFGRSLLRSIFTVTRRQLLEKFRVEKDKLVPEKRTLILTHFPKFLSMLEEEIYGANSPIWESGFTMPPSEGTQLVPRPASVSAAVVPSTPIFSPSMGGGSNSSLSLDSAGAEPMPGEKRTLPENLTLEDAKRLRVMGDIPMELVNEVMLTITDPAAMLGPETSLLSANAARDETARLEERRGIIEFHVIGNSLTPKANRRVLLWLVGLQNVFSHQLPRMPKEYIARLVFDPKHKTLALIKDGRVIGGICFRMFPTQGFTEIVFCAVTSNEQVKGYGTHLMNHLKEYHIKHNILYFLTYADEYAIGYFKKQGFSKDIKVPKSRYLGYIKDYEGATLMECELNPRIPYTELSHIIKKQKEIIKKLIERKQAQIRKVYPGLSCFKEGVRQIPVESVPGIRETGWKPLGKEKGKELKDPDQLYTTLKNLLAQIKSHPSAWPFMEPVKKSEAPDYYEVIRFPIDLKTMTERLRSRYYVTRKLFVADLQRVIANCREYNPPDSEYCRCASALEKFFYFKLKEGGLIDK
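ThioGlo1-coupled HAT assay: 20nM GCN5L2, 70uM acetyl-CoA, 75uM H3(1-25) peptide, pH 7.5. Fluorescence read at 340/540nm at start and after 20 min at room temperature.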
N370S GC mod = N370S glucocerebrosidase modulation, Gaucher chaperone candidate; P04062; N370S GC spleen homogenate, 4MU-glucoside fluorescence; Potency, µM (top dose mostly 59.4 µM), for the others: top-dose activity change, negative = inhibition, usual class: inhibitors; 0.092% of 330,000 active;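 further: 0% = full enzyme activity and -100% = no enzyme basal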
* marks the source's active call; other numbers are inactive results; ? = inconclusive; . = no result given. The call rests on the fitted dose curve; in most records, active means well fitted curve in the direction sought with a large enough effect; inconclusive means small, poorly fitted or top-dose-only effect, or another doubt; inactive means no such curve, though single readings can be large; an effect the other way counts as inactive or inconclusive. Unless noted, on the % scale 0 is the no-effect control and ±100 the full control effect; potency means the concentration at half of the fitted maximal effect. The list is partial; most or all hits stand in other tables.

SMILES | N370S GC mod | KAT2A inh
CC(=O)C1=C(O)C(=O)N(c2ccc(Br)cc2)C1c1ccc(Br)cc1 (stereo not given) | 0% | -10%
COC(=O)c1cccc(N(C(=O)c2cnccn2)C(C(=O)NC2CCCCC2)c2cn(C)nc2C)c1 (stereo not given) | -3% | -9%
O=C(CCc1nnc(COc2ccccc2)o1)NCc1ccc(Cl)s1 | 6% | -7%
COc1ccc(CCNC(=O)COC(=O)/C=C/c2cc(OC)ccc2OC)cc1 | . | -21%
CCOC(=O)C(NS(=O)(=O)c1ccc(Br)cc1)C(C)C (stereo not given) | -4% | -2%
Cc1ccc(C(=O)N2N=C(c3ccc(NS(C)(=O)=O)cc3)CC2c2cccs2)cc1 (stereo not given) | 2% | -18%
O=C(N/N=C/c1cccc(O)c1)c1ccc(COc2ccccc2Br)cc1 | 5% | -13%
COc1cccc(NC(=O)COC(=O)CCOc2ccccc2OC)c1 | -13% | -3%
O=C(NC(=S)Nc1ccc([N+](=O)[O-])cc1O)C1CCCCC1 | 2% | -19%
CCOc1ccc(CN2CCNC(=O)C2CC(=O)NCCCOc2cccnc2)cc1 (stereo not given) | 0% | -3%
CCN(c1ccc(OC)cc1)S(=O)(=O)c1nnc(NC(=O)C2CCCCC2)s1 | -2% | -6%
CCN(C(=O)Cn1c(SCC(=O)NCc2ccccc2)nc2ccccc21)c1cccc(C)c1 | . | 2%
C/C(=N\NC(=S)NCc1ccccc1)c1ccc(C)o1 | -9% | -1%
CC(NC(=O)c1cccnc1)C(=O)N1CCCCC1 (stereo not given) | -4% | -1%
OCCc1c[nH]c2ccc(OCc3ccccc3)cc12 | -6% | -10%
COC(=O)c1sccc1-n1cccc1C(=O)C(=O)N1CC(C)OC(C)C1 (stereo not given) | 5% | -1%
Cc1ccc(C)c(-n2c(Cc3cccs3)n[nH]c2=S)c1 | 4% | 3%
OC(CN1CCOCC1)Cn1c2c(c3ccccc31)CCCC2 (stereo not given) | -3% | 0%
COc1ccccc1C(=O)NNC(=O)C(=O)Nc1cccc(Cl)c1C | -10% | -6%
Cc1cccc(-c2nc3scc(CCNS(=O)(=O)c4ccc(F)c(C(F)(F)F)c4)n3n2)c1 | . | 1%
CCOC(=O)N1CCC(NC(=O)c2cc(C(=O)Nc3ccc(OCC)cc3)ccc2CO)CC1 | 1% | ?
CCN1N=C(c2cc(Cl)sc2Cl)CSC1=O | 12% | -5%
O=C1COc2ccc(C(=O)c3ccccc3C(=O)NCc3ccccc3)cc2N1 | 3% | 3%
COc1ccccc1CNC(=O)CCc1c(C)nc2cc(-c3ccc(Cl)cc3)nn2c1C | . | -2%
CCOC(=O)C1=C(C)N(C)C(=O)C1CC(=O)O (stereo not given) | 1% | -9%
COC(CNC(=O)Cn1ncc2ccsc2c1=O)OC | 0% | 3%
COc1ccc(C)cc1NC(=O)C(c1ccccc1)N1CCN(CC(=O)N2CCCC2)CC1 (stereo not given) | -1% | -3%
Cn1cc(/C=C(\C(=O)O)C(C(=O)O)=C2CCCCC2)c2ccccc21 | 5% | 4%
Cc1ccc(C2=NN(C(=O)CSc3nnnn3C)C(c3ccco3)C2)cc1 (stereo not given) | . | 0%
COc1ccc(/C=C/C(=O)NCC(c2ccc(F)cc2)N2CCOCC2)cc1OC (stereo not given) | 1% | 7%
c1ccc(-n2cc(CN3CCCC3)c(-c3ccc4c(c3)OCO4)n2)cc1 | 11% | 0%
COc1ccc2cc(-c3cc(C(=O)OCC(=O)NC4CCS(=O)(=O)C4)c4ccccc4n3)ccc2c1 (stereo not given) | 8% | -27%
Cn1c(N)c(C(=O)CSc2nc(N)cc(N)n2)c(=O)n(C)c1=O | -13% | 0%
O=C1c2cccnc2C(=O)N1CNc1ccc(Cl)cc1 | -4% | 2%
O=C(c1ccc(NS(=O)(=O)c2ccccc2)cc1)N1CCCC1 | 9% | 1%
Cc1ccc(S(=O)(=O)c2nc(-c3cccs3)oc2N2CCCCC2)cc1 | . | -7%
COC(=O)COc1ccc(C2NC(=O)NC(c3ccccc3)=C2C(C)=O)cc1OC (stereo not given) | 3% | 0%
Cc1c(NC(=O)CSCc2ccc(Br)cc2)c(=O)n(-c2ccccc2)n1C | 10% | -5%
Cc1cccc(NC(=O)Cn2c(=O)n(CCC(=O)N3CCc4ccccc4C3)c(=O)c3ccccc32)c1 | . | -7%
COc1ccccc1NC(=O)C1=C(C)Nc2nnnn2C1c1cccc(C)c1 (stereo not given) | -29% | 0%
CC(=O)c1cc(C(=O)Nc2ccccc2C(=O)O)oc1C | -23% | -1%
Cc1c(NC(=O)CSc2nc3ccccc3[nH]2)c(=O)n(-c2ccccc2)n1C | -7% | 1%
CCN(CC)C(=O)CSc1nc2ccccc2c(=O)n1CCC(=O)NCc1ccc(F)cc1 | 3% | 1%
COc1ccccc1OCc1nc2ccccc2n1Cc1ccccc1 | . | -4%
CC1CCCC(C)N1/N=C/c1ccccc1Br (stereo not given) | 4% | 0%
O=C(O)c1nc(-c2ccccc2)n(-c2ccc(Cl)cc2)n1 | 20% | -5%
Cc1ccc(S(=O)(=O)c2cn(C)c3cc(N4CCOCC4)c(F)cc3c2=O)cc1 | -2% | 4%
O=C(CSc1nncs1)NC(=O)Nc1ccc2c(c1)OCCO2 | -30% | -1%
Cc1ccc(CC(=O)NC2CCCc3ccccc32)cc1C (stereo not given) | 0% | -1%
CCn1c(C)cs/c1=N\S(=O)(=O)c1ccccc1 | 2% | 0%

Ordered by length of the SMILES (lowest first): 3 of the compounds above.
SMILES | N370S GC mod | KAT2A inh
O=C(c1ccc(NS(=O)(=O)c2ccccc2)cc1)N1CCCC1 | 9% | 1%
COc1ccc(/C=C/C(=O)NCC(c2ccc(F)cc2)N2CCOCC2)cc1OC (stereo not given) | 1% | 7%
Cc1cccc(NC(=O)Cn2c(=O)n(CCC(=O)N3CCc4ccccc4C3)c(=O)c3ccccc32)c1 | . | -7%

The listing continues:
SMILES | N370S GC mod | KAT2A inh
Cc1nc2nc(C(F)(F)F)[nH]n2c(=O)c1Cc1ccccc1 | . | -4%
CCc1cccc(C)c1NC(=O)COC(=O)c1cc([N+](=O)[O-])ccc1N1CCOCC1 | 6% | -3%
O=C(CCn1cnc2ccccc2c1=O)Nc1ccc(S(=O)(=O)N2CCCC2)cc1 | 10% | .
CSC1=NCCN1C(=O)Cc1ccc(-c2ccccc2)cc1 | 1% | -2%
Cc1onc(-c2ccccc2)c1C(=O)N1CCN(c2ccccc2)CC1 | -22% | -7%
CN(C)c1nc2n(c(=S)n1)CCS2 | 2% | -1%
O=C1CC(c2ccc(F)cc2)Cc2nc(N3CCOCC3)ncc21 (stereo not given) | 2% | -9%
COc1ccc(C(=O)CSc2nnnn2C)c(OC)c1 | -17% | 1%
Cn1c2c(c(=O)n(C)c1=O)C(c1ccccc1OC(F)F)C1=C(CCCC1=O)N2 (stereo not given) | 18% | 0%
COc1ccccc1C(=O)OCCNC(=O)Cn1cnc2c1c(=O)n(C)c(=O)n2C | 3% | -11%
CCOC(=O)NC(=O)C(=CNNc1ncc(C(F)(F)F)cc1Cl)C(=O)NC(=O)OCC | 7% | 4%
COc1ccc(CC(=O)Nc2cc(S(=O)(=O)N3CCOCC3)ccc2N2CCCC2)cc1OC | . | 0%
O=c1c2ccccc2nc(-c2ccccc2)n1Cc1ccccc1 | 3% | -12%
CC1CC(C)CN(C(=O)COC(=O)c2nn(C)c(=O)c3ccccc23)C1 (stereo not given) | -9% | 2%
CCNc1nc(C)c2cc(Br)c(=O)n(CC)c2n1 | 17% | -3%
CC1CCCC(C)N1C(=O)COC(=O)c1nn(C)c(=O)c2ccccc12 (stereo not given) | 1% | -9%
CCCS(=O)(=O)N1CCCC(C(=O)NCCCN2CCN(c3ccc(F)cc3)CC2)C1 (stereo not given) | 7% | -3%
Cc1ccc(-n2c(C)cc(C(=O)CSc3nnc4ccccn34)c2C)cc1 | -21% | 15%
CSc1nnc(NC(=O)Cc2coc3cc(C)ccc23)s1 | . | 0%
CC(=NCc1ccccc1)C1=C(O)COC1=O | 3% | -5%
CC1CC2(CCCCC2)N2C(=O)C(=O)c3cccc1c32 (stereo not given) | -3% | -10%
COc1ccc(S(=O)(=O)N2CCCC2C(=O)Nc2nccs2)cc1 (stereo not given) | 12% | .
Cc1ccccc1C(=O)NC(=S)Nc1ccccc1C(=O)O | 16% | -1%
COc1cccc(C2C(C(=O)OC(C)C)=C(C)Nc3ncnn32)c1 (stereo not given) | ? | -5%
Cc1ccc(NCCC(=O)c2cccc([N+](=O)[O-])c2)cc1 | -7% | -6%
COc1ccc(OC)c(NC=C2C(=O)OC(C)(C)OC2=O)c1 | -7% | ?
CCN(CC(=O)Nc1cccc(S(=O)(=O)N2CCOCC2)c1)Cc1ccccc1 | -21% | 1%
COc1ccc(N2CCN(C(CNC(=O)C(=O)NCCCO)c3ccco3)CC2)cc1 (stereo not given) | -2% | 1%
CCOC(=O)C1CCN(C(C(=O)Nc2ccc3c(c2)OCCO3)c2ccccc2)CC1 (stereo not given) | 1% | -17%
COc1ccc(C(=O)/C=C/c2cccs2)c(OC(=O)N2CCOCC2)c1 | 0% | 2%
CCN(CC)S(=O)(=O)c1ccc(NC(=O)Cn2c(=O)oc3ccccc32)cc1 | -7% | 0%
O=C(CC1NCCNC1=O)Nc1cc(Cl)cc(Cl)c1 (stereo not given) | -8% | -7%
O=C(N/N=C/c1ccc(-c2ccc(Br)cc2)o1)c1ccc2c(c1)OCO2 | -3% | -3%
CCN(CC)c1ccc(NC(=O)c2cncc(Br)c2)cc1 | 0% | -7%
O=C(CNC(=O)c1ccccc1)NCCO | -8% | -1%
COc1cc(OC)c(C2=NOC(C(=O)N3CCN(C(=O)c4ccco4)CC3)C2)cc1Cl (stereo not given) | 5% | -9%
COc1ccc(-n2nnnc2SCC(=O)c2ccc3c(c2)OCCO3)c(OC)c1 | -7% | 9%
O=C(OCc1cc([N+](=O)[O-])cc2c1OCOC2)c1cccnc1SC(F)F | 4% | -14%
CN(C)CCNC(=O)C1CC(=O)N(c2ccc(F)c(Cl)c2)C1 (stereo not given) | -10% | -27%
CCC(=O)Nc1ccc(Cl)c(NC(=O)c2cccnc2)c1 | 1% | 3%
CN(c1ccc2nc3ccccc3c(=O)n2n1)C1CCCCC1 | -7% | -17%
O=C(c1cc(S(=O)(=O)N2CCOCC2)ccc1F)N(CCc1ccccc1)Cc1ccccc1 | -16% | -7%
Cc1cc(C)n(CCc2nc(-c3ccc(C(C)(C)C)cc3)cs2)n1 | 28% | -12%
NS(=O)(=O)c1cccc(NS(=O)(=O)c2cccc(C(F)(F)F)c2)c1 | -18% | -1%
CCOC(=O)C1CCCN(Cc2ccccc2C)C1 (stereo not given) | 2% | -2%
CCN(CC#CCC1(O)c2ccccc2-c2ccccc21)CCO | -9% | -7%
O=C(Nc1nnc(-c2ccc(F)cc2)o1)c1ccc(S(=O)(=O)N2CCOCC2)cc1 | -5% | -22%
Cc1ccc(S(=O)(=O)n2c([N+](=O)[O-])cnc2C)cc1C | 15% | -1%
CC(C)c1c(C(=O)N/N=C/c2ccccc2C(=O)O)nnn1-c1nonc1N | -3% | -4%
CCN(CC(=O)NCc1ccc(F)cc1)C(=O)Cc1c(F)cccc1Cl | -4% | 1%

Whole records, looked up by structure:
Record of O=C(CNC(=O)c1ccccc1)NCCO = N370S GC mod = -8%; KAT2A inh = -1%
Record of Cc1cc(C)n(CCc2nc(-c3ccc(C(C)(C)C)cc3)cs2)n1 = N370S GC mod = 28%; KAT2A inh = -12%
Record of COc1ccc(-n2nnnc2SCC(=O)c2ccc3c(c2)OCCO3)c(OC)c1 = N370S GC mod = -7%; KAT2A inh = 9%

Next results
SMILES | N370S GC mod | KAT2A inh
O=c1cc(CSc2ccc(Cl)cc2)nc(-c2ccccc2)[nH]1 | -2% | -17%
O=C(CCC(=O)N1CCOc2ccccc21)NCc1cccnc1 | -2% | -3%
COCCCn1c(=O)c2ccccc2n(Cc2ccccc2)c1=O | -9% | -8%
CCCCNC(=O)C1CCN(C(=O)C2CCN(S(=O)(=O)c3ccc(C)cc3)CC2)CC1 | -6% | -4%
CCCc1cc(C(=O)Nc2sc3c(c2C#N)CCC3)no1 | 6% | -4%
CC(=O)C1=C(O)CC(C)(C)CC1=NCc1nc2ccccc2[nH]1 | 5% | -3%
O=C(CNC(=O)c1ccc(OC(F)F)cc1)NCc1ccccn1 | -2% | -9%
Cc1nn(CC(=O)N2CCN(c3ccccc3)CC2)c(=O)c2cc3sccc3n12 | . | -1%
O=C(CCc1nnc(Cc2c[nH]c3ccccc23)o1)NC1CCCC1 | -15% | -1%
COc1ccccc1C(=O)NCCC(=O)NCC1CCCCC1 | . | 3%
CCc1c(C)nc(N2CCOCC2)[nH]c1=O | -7% | -5%
COC(=O)c1ccc(NS(=O)(=O)c2ccc(-n3cccn3)cc2)cc1 | . | -1%
O=C(OCc1ccc(-c2ccccc2)cc1)c1cccc(O)c1 | -1% | -10%
COc1ccc(C(=O)N2CCN(Cc3ccccn3)CC2)cc1 | -3% | -10%
